Mtb bLac sens – beta-lactam sensitization of Mtb H37Rv; inhibition, % at 25 µM; 0.27% of 330,000 active; M. tuberculosis H37Rv growth with meropenem, percent inhibition; hits of this screen are not shown here;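 active means about 74% or more and at least 40 points above the plate without the antibiotic, then above 30% in a dose series; inconclusive means first-round hits that could not be retested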;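 further: growth measured after seven days incubation then overnight dye step; 0% = bacteria only wells and 100% = bacteria with antibiotic; twin plates without the antibiotic show which effects depend on it; some results filed as inactive read as strong as hits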
YopH PTP inh – blocks Yersinia enterocolitica YopH tyrosine phosphatase. fluorescence Ex485/Em525. inhibition, %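 (about 10 µM by stock and volumes)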. 0.16% of 140,000 active. AID 898;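 active means inhibition of 50% or more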;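 further: controls were vehicle for no effect and minimum signal wells for full effect; inactives centre near -20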
Arbovirus inh – arbovirus infection inhibition; inhibition, % at 10 µM; 0.37% of 200,000 active; arbovirus infection cell-based antiviral screen;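 active means inhibition from about 30%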;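 further: bluetongue infection of BSR cells; cell survival read as ATP light after 72 h; 0% = infected wells without compound and 100% = uninfected wells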
RecA splice inh – blocks M. tuberculosis RecA intein splicing. 0.75% of 290,000 active. cell-free RecA intein splicing, fluorescence. inhibition, %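 (about 9 µM by stock and volumes)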. P9WHJ3; in the data active means inhibition above about 30%; inconclusive means no clear call, values can overlap the other calls;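 further: 0% = vehicle wells and 100% = reference inhibitor control wells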
Target sequence (P9WHJ3 whole entry, looked up, canonical isoform): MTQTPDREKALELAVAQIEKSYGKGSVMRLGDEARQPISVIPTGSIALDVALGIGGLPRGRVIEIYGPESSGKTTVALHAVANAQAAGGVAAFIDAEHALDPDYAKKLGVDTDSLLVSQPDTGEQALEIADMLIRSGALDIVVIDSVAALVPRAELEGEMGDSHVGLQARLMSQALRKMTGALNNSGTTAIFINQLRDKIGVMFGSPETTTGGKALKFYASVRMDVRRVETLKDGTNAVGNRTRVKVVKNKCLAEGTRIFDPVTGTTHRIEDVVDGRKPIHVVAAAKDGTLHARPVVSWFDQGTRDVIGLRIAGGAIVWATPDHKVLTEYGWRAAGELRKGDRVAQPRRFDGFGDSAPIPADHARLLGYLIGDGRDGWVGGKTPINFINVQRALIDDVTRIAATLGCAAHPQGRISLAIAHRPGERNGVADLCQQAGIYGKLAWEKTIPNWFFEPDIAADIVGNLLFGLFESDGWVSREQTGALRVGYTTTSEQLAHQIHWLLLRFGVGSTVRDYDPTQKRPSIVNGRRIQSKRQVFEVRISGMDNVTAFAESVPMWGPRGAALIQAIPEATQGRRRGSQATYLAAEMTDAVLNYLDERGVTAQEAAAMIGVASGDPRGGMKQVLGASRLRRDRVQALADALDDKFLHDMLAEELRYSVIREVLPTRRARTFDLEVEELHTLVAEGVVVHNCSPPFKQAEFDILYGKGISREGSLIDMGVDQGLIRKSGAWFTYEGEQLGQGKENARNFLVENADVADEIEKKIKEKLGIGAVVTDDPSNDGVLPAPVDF
Mtb growth – M. tuberculosis H37Rv growth inhibitors, H37Rv strain (AID 1626); M. tuberculosis H37Rv growth inhibition; higher % means a stronger effect; inhibition, % at 10 µM, or IC50 in µM where a hit was titrated; 0.95% of 220,000 active;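 active means confirmed in a dose series; inconclusive means inhibition above 80% but not taken into the dose series; inactive means below 80% or under 30% at every dose of the series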;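 further: bacteria incubated seven days before Alamar blue readout; 0% = bacteria only wells and 100% = bacteria with antibiotic wells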
Arbovirus inh repeat – recorded beside Arbovirus inh, whose call it bears; inhibition, %; measured here: 10K subset replicate screen; many hits read low in the repeat;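 first of two repeat runs on a subset; 0% = infected and 100% = uninfected wells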
Active calls of the source: *; ? = inconclusive; . = no result given. This is a subset; the hit share may differ from the screen's.

SMILES	Mtb bLac sens	YopH PTP inh	Arbovirus inh	RecA splice inh	Mtb growth	others
Cc1ccc(NC(=O)Nc2ccc3c(c2)CCC3)cc1	-14	.	.	1.4	.
O=C(Cn1cc(C(=O)COc2ccccc2)c2ccccc21)NCc1ccco1	1	8	4	3.6	6%
O=C(NC1(C(F)(F)F)C(=O)Nc2c1c(=O)[nH]c(=O)n2-c1ccccc1)c1ccncc1 (stereo not drawn)	-5	-32	.	-0.5	-5%
COc1ccc(/C(O)=C2/C(=O)C(=O)N(CCN(C)C)C2c2ccc(C)cc2)cc1Cl (stereo not drawn)	0	-45	-2	-1.1	0%
CC1=CS/C(=C(/C#N)C(=O)N2CCCCC2)N1c1ccccc1	-13	-2	0	0.8	-5%	Arbovirus inh repeat=-6
C#CCNC(=O)C1=C[C@H](c2ccc3c(c2)OCO3)[C@@H](CCCO)[C@H](OCC)O1	-3	.	2	-2.9	-4%
O=C(NCCCCc1ccccc1)Nc1cccc(F)c1	2	.	.	7.3	.
Cc1nc2ccccc2c(=O)n1CCCN1CCOCC1	-9	.	.	-2.4	-14%
N#Cc1ccc(Cn2c(=O)oc3ccccc32)cc1	2	.	.	0.0	.
COc1ccc(NC(=S)NN2C(C)CCCC2C)cc1 (stereo not drawn)	-7	-6	-3	1.7	-2%
CCCCCCN(C(=O)CCCCCN1C(=O)NC(c2ccc(-c3ccccc3)cc2)C(C(=O)OCc2ccccc2)=C1C)C(C)C(=O)NCCCC (stereo not drawn)	-5	-22	-9	2.4	.
CC(=O)Nc1ccc(NC(=O)COC(=O)c2ccco2)cc1	2	.	26	.	3%
CCOc1ccccc1N(C(=O)CNC(=O)c1ccco1)C(C(=O)NC1CCCC1)c1cccnc1 (stereo not drawn)	-4	-33	6	1.3	-8%
CC(C)CC(=O)NC(NC(=S)Nc1cccc2cccnc12)C(Cl)(Cl)Cl (stereo not drawn)	-12	-20	3	-2.0	-1%
C=CCNC(=O)c1onc(CSc2cc(C)ccc2C)c1C(=O)O	23	-66	4	0.5	-9%

As a working copy, some entries already given:
SMILES	Mtb bLac sens	YopH PTP inh	Arbovirus inh	RecA splice inh	Mtb growth	others
Cc1ccc(NC(=O)Nc2ccc3c(c2)CCC3)cc1	-14	.	.	1.4	.
O=C(Cn1cc(C(=O)COc2ccccc2)c2ccccc21)NCc1ccco1	1	8	4	3.6	6%

Returning to the listing, starting five compounds before the break.
SMILES	Mtb bLac sens	YopH PTP inh	Arbovirus inh	RecA splice inh	Mtb growth	others
CCCCCCN(C(=O)CCCCCN1C(=O)NC(c2ccc(-c3ccccc3)cc2)C(C(=O)OCc2ccccc2)=C1C)C(C)C(=O)NCCCC (stereo not drawn)	-5	-22	-9	2.4	.
CC(=O)Nc1ccc(NC(=O)COC(=O)c2ccco2)cc1	2	.	26	.	3%
CCOc1ccccc1N(C(=O)CNC(=O)c1ccco1)C(C(=O)NC1CCCC1)c1cccnc1 (stereo not drawn)	-4	-33	6	1.3	-8%
CC(C)CC(=O)NC(NC(=S)Nc1cccc2cccnc12)C(Cl)(Cl)Cl (stereo not drawn)	-12	-20	3	-2.0	-1%
C=CCNC(=O)c1onc(CSc2cc(C)ccc2C)c1C(=O)O	23	-66	4	0.5	-9%
COc1ccccc1CN1CC(C(=O)NC2(c3ccccc3)CC2)CCC1=O (stereo not drawn)	?	.	.	2.2	.
CC(=O)Oc1cc(O)c2c(c1)OC(c1ccc(OC(C)=O)c(OC(C)=O)c1)C(OC(C)=O)C2=O (stereo not drawn)	-5	.	.	-2.9	.
N=c1sccn1CC(=O)NC(c1ccccc1)c1ccccc1	-9	.	11	0.7	8%
O=C(COc1ccccc1)N(Cc1cccc(F)c1)C1CCS(=O)(=O)C1 (stereo not drawn)	4	.	.	-0.6	.
CCc1ccc(CCC(=O)Nc2ccc(C(C)=O)cc2)o1	24	-28	-1	0.4	7%
COc1ccc(CNC(=O)CCn2nc(C)c3c(C)n(-c4ccccc4)nc3c2=O)c(OC)c1	1	.	.	2.7	.
CN(C)c1ccc(C(=O)NNC(=O)Nc2ccccc2)cc1	-8	.	1	-1.2	1%
Cc1c(NCc2cc(Cl)cc(Cl)c2O)c(=O)n(-c2ccccc2)n1C	0	-4	-7	-4.1	-12%
O=[N+]([O-])c1ccc(OC/C=C2\Oc3ccc([N+](=O)[O-])cc3C2N2CCOCC2)cc1 (stereo not drawn)	14	4	7	2.6	8%
CSc1ccccc1C(=O)Nc1cc2c(cc1C(=O)O)OCCCO2	59	.	.	4.6	.
COc1ccc(C(C(=O)NC2CCCC2)N2CCc3ccccc32)cc1 (stereo not drawn)	-1	-31	6	-2.5	-2%	Arbovirus inh repeat=8
CCCCNS(=O)(=O)c1ccc2nc(SCC(N)=O)[nH]c2c1	2	.	.	-2.0	-4%
CCOCCCNC(=O)C1(O)c2cc(Br)ccc2NC(=O)N1c1cccc(OC)c1 (stereo not drawn)	1	.	.	0.3	.
O=S(=O)(/N=C(/Nc1cccc2ccccc12)c1ccccc1)c1ccc(F)cc1	2	.	.	3.3	.
Cn1c(O)c(C=NCc2cccs2)c(=O)n(C)c1=O	-1	-31	1	-5.0	-1%
COCCSc1nc(N)c(NC(=O)c2ccco2)c(=O)[nH]1	?	.	.	-1.5	.
CN(C)CCNc1nc(-c2ccco2)c2c(c1C#N)CC(C)(C)OC2	3	-37	2	-1.8	-8%
O=[N+]([O-])c1cccc(/C=N/n2cnnc2)c1O	?	-43	5	-0.8	-11%
COc1ccc2c(c1)cc1c(=O)n(CC(=O)NC(C)CCc3ccccc3)nc(C)n12 (stereo not drawn)	-1	.	.	-4.3	.
Cn1ccsc1=NC(=O)c1ccc(S(C)(=O)=O)cc1	2	.	.	-2.6	.
CC(=O)Nc1ccc(NC(=O)C(C)OC(=O)CCCc2c[nH]c3ccccc23)cc1 (stereo not drawn)	4	.	.	-1.2	.
COC(=O)c1sccc1NC(=O)Nc1ccccc1Cl	-2	.	.	1.2	.
COc1ccccc1Oc1ccc(S(=O)(=O)N2CCCC2)cc1	23	16	-1	3.1	-1%
C/C(=N\NC(=O)c1ccc(=O)[nH]n1)c1cccnc1	1	-9	4	-3.7	-1%
COc1ccc(S(=O)(=O)N2CCC3(CC2)OCCN3S(=O)(=O)c2cccs2)cc1OC	-13	.	.	3.2	.
COc1ccc(C(=O)Cn2c(=O)oc3ccc(C)cc32)cc1	-4	.	.	-1.4	.
CS(=O)(=O)c1ccc(N2CCN(c3ccccn3)CC2)c([N+](=O)[O-])c1	-2	.	.	0.5	.
O=C(CSc1cn(Cc2cccc(F)c2)c2ccccc12)NCc1ccc(F)cc1	1	-33	-8	-2.3	0%
COc1cc(/C=N/NC(=O)c2ccc(CSc3nc4ccccc4[nH]3)cc2)ccc1O	26	.	-16	0.9	7%
NC(=O)c1ccc(NC(=O)CCC(=O)N2CCN(S(=O)(=O)c3ccc(Cl)cc3)CC2)cc1	-7	.	.	-2.5	7%
Nc1ccccc1Sc1nc2ccccc2[nH]1	-1	.	-26	-2.5	1%
C/C(Cc1ccccc1)=N\NC(=O)CNC(=O)c1cccc(F)c1	0	.	.	-2.1	.
CCOP(=O)(OCC)c1nc(-c2ccc(Cl)cc2Cl)oc1N1CCCCC1	4	.	-23	23	14%
CCCCN1C(=O)C(C)=C(C)C1OCCc1ccc(OC)c(OC)c1 (stereo not drawn)	89	.	.	-1.6	.
Cc1ccc(C(=O)Nc2nc3ccc(S(C)(=O)=O)cc3s2)o1	-7	-39	-10	0.0	-10%
Cc1csc(=O)n1CCC(=O)OCC(=O)Nc1ccc(F)c(F)c1F	-2	.	.	2.1	.
O=Cc1ccccc1-n1cccn1	-3	.	-3	-0.3	0%
O=C(CCC(=O)c1cccs1)Nc1ccccc1F	-5	-38	0	-1.0	7%
Cc1occc1C(=O)NNC(=O)Nc1ccc(F)cc1F	-11	-35	-7	1.7	-1%
CN(C[C@H](Cc1ccccc1)N(C[C@H](Cc1ccccc1)N(CCC(C)(C)C)N=O)N=O)N=O	-4	.	3	4.4	-6%
COc1ccc(N(CC(=O)NCc2ccc(F)cc2)S(=O)(=O)c2c(C)noc2C)cc1	3	.	.	-0.6	.
Nc1ccncc1N	-10	.	.	-0.7	.
C=CCOc1cccc(C2/C(=C(/O)c3ccc(C)cc3)C(=O)C(=O)N2CCN2CCOCC2)c1 (stereo not drawn)	2	-45	9	0.1	-4%
CCC(=O)N1CCc2cc(S(=O)(=O)NCCN3CCCCC3CC)ccc21 (stereo not drawn)	-8	-15	-2	0.8	-7%
CC(=O)Nc1nc(-c2ccc3c(c2)CC(C)N3C(=O)C2CC2)c(C)s1 (stereo not drawn)	-3	.	.	2.8	.
CN(Cc1ccccc1)c1ccc(S(=O)(=O)N2CCC(C(=O)O)CC2)cc1[N+](=O)[O-]	3	.	1	1.7	-1%
O=S(=O)(O)c1nc2ccccc2n1Cc1ccccc1	4	-15	5	-3.2	.
Cc1ccc(-c2ccnc(=S)[nH]2)cc1	100	-2	3	11	6%
COCCOC(=O)c1c(C)n(C)c2ccc(OC(=O)c3c(OC)cccc3OC)cc12	10	.	.	0.4	.
C=CCn1c(CCNC(=O)c2ccccc2F)nnc1SCC(=O)Nc1nc(C)cs1	2	-7	4	11	-5%
Cc1ccc(-n2nc3c(=O)n(CC(=O)NCCc4cccs4)nc(C)c3c2C)cc1	0	.	.	-1.4	.
Cc1cccc(OC(C)C(=O)N/N=C\c2ccncc2)c1 (stereo not drawn)	2	.	3	-3.6	1%
CN(C)S(=O)(=O)c1cccc(C(=O)NCC2(N3CCOCC3)CCCCC2)c1	-4	.	.	-0.9	5%
CCCCC(=O)Nc1ccc(C(=O)NNC(=O)c2ccc(C)c(Br)c2)cc1	-10	-19	-14	0.5	2%
CCOc1ccc2nc(SCC(=O)NCc3ccc(S(N)(=O)=O)cc3)sc2c1	-2	.	.	-0.2	.
C=CCOC(=O)C1=C[C@@H](c2ccc3c(c2)OCO3)C[C@@H](OCc2ccc(CO)cc2)O1	1	.	1	3.5	11%
Cn1ncc2c(O/N=C(\N)c3ccc(C(C)(C)C)cc3)ncnc21	-6	.	.	10	-23%
COc1ccc(CNCCNC(=O)c2cccs2)cc1OC	0	.	3	-1.3	3%
Cc1cc(C(=O)COC(=O)C2=NNC(=O)CC2)c(C)n1CCc1ccccc1	5	.	8	1.2	5%
COCCn1nnnc1CN1C2CCCC1CC(NC(C)=O)C2 (stereo not drawn)	-6	-3	6	0.8	-5%
Carrying on:
SMILES	Mtb bLac sens	YopH PTP inh	Arbovirus inh	RecA splice inh	Mtb growth	others
CN1CCN(C(=O)N2c3ccccc3C=Cc3ccccc32)CC1	-8	-30	-4	0.3	-7%
O=c1oc2ccccc2n1CSC1=NCCS1	33	3	-13	16	-1%
CCCOC(=O)C1=C(C)NC(=O)NC1c1ccc(Br)s1 (stereo not drawn)	-7	.	-6	-2.0	-2%
C=CCNc1nc(Cl)nc(Nc2ccccc2)n1	6	.	.	3.1	.
CN(CCC(=O)c1ccccc1)CCC(=O)c1ccccc1	74	.	.	0.5	.
COc1ccc(N2CCN(C(c3ccccc3)c3sc4nc(C)nn4c3O)CC2)cc1 (stereo not drawn)	-3	.	8	-1.0	-1%	Arbovirus inh repeat=5
O=C(CSc1nnc(-c2ccccc2)n1Cc1ccco1)Nc1ccc2c(c1)OCCO2	-3	-29	-1	-0.8	-3%
CCn1c(N)c(C(=O)N2CCOCC2)sc1=S	3	-13	6	-2.0	7%
COC(=O)[C@H]1C[C@@H]1[C@H](NC(=O)c1ccccc1)c1ccccc1	-10	-30	5	0.6	-2%
Cc1cnc(C(=O)N2CCCC(C(=O)c3cccc(OC(C)C)c3)C2)cn1 (stereo not drawn)	1	.	3	0.7	-7%
CCn1cc(C(=O)O)c(=O)c2cnc(N3CCN(C(=S)Nc4ccc(F)cc4)CC3)nc21	4	.	.	1.1	6%
Cc1cc(=O)oc2cc(OCCSCCN3CCOCC3)ccc12	-3	-36	6	-2.7	-2%
CCn1cc(C(=O)NN)c(=O)c2cc(F)c(N3CCN(C)CC3)cc21	?	.	.	-0.4	.
Cc1c(CC(=O)NCC(=O)N[C@H](Cc2ccccc2)C(=O)O)c(=O)oc2cc(O)ccc12	-8	.	.	-74	.
Cc1noc(C)c1CSCC(=O)Nc1cc(S(=O)(=O)N2CCCCC2)ccc1OC(C)C	-1	.	.	2.5	.
Cn1c(=NC(=O)C2CC2)sc2cccc(F)c21	-2	.	-3	1.3	2%	Arbovirus inh repeat=3
O=C(Nc1cccc([N+](=O)[O-])c1)c1cc(S(=O)(=O)N2CCOCC2)cs1	-15	.	.	-3.2	.
Cc1cc(S(=O)(=O)N(Cc2ccc3c(c2)OCO3)CC2CCCO2)ccc1-n1cnnn1 (stereo not drawn)	-4	-11	1	7.5	-7%
O=C(Nc1nccs1)c1sc2cc(Cl)ccc2c1Cl	80	-23	-12	-6.2	?
